Assay outcomes: PubChem, several laboratories
HNF4A DNA FP: change in binding of human HNF4 alpha to DNA; 360,000 tested, 0.3% active; P41235; activity change, % at 10 µM; HNF4a-FITC DNA binding, fluorescence polarization, 1 h; in the data active = activity change above about 30%, passing the limit was not always enough;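 also: controls were the assay level and a saturating level of protein; the project sought stronger binding though the title names inhibitors; some compounds called inactive have numbers as strong as hits; positive values seem to mean higher polarization but the record does not say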
Target sequence (P41235 whole entry, looked up): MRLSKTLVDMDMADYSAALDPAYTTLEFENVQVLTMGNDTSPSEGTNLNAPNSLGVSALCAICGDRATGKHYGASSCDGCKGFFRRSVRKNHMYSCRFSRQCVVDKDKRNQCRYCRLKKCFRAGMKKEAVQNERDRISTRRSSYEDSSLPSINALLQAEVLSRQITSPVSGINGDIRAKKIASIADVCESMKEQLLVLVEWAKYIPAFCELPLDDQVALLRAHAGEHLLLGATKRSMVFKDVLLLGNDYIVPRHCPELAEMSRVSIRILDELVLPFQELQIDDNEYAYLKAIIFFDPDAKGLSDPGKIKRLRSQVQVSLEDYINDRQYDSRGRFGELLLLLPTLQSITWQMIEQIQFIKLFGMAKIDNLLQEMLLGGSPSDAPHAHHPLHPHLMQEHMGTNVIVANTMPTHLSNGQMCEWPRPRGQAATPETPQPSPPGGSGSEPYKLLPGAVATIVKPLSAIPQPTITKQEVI
AF4-AF9 inh: MLL-AF4/AF9 protein interaction inhibition; P42568; AlphaScreen, biotin-AF4 peptide binding to FLAG-AF9; inhibition, % at 10 µM; 350,000 tested, 0.47% active; AID 651704;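 active = every replicate reaching a set inhibition limit, whatever the replicate mean, cut at about 25% in these data; inconclusive = mean inhibition reaches that limit but some replicates miss it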;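 also: 0% = plate neutral control median and 100% = total signal loss; the record names both 10 and 1 µM as test concentration; the first replicate is given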
FGF22 binding: FGF22 (human) thermal shift binding; 340,000 tested, 1.5% active; Q9HCT0; calls only at 9.99 µM; recombinant FGF22 thermal shift, SYPRO orange fluorescence; percent of sucrose octasulfate shift, DMSO zero;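 active = melting point raised past a set limit in the mean and every replicate; inconclusive = no clear call; three in four hits are not shown here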
Target sequence (Q9HCT0 whole entry, looked up): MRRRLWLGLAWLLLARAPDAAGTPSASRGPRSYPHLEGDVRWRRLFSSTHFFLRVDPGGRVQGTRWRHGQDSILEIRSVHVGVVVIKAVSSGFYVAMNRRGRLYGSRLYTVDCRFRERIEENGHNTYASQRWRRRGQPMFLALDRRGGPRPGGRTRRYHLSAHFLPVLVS
E coli growth: E. coli growth inhibition | OD600 absorbance (test concentration not listed) | 330,000 tested, 0.21% active | Escherichia coli growth, OD600, 23 h; hits give low values | AID 1053175;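 active = OD600 absorbance below the run mean of sample wells minus 3.6 SD, in any replicate, cut at about 0.56 in these data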;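 also: stock transfer was 300 nL into about 60 µL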
Vif A3G: HIV-1 Vif–A3G interaction blockers – biochemical, TR-FRET, GST-Vif 1-94, biotin-A3G peptide, dose response retest, primary screen (AID 1117319) | 260,000 tested, 0.57% active | TR-FRET GST-Vif / biotin-A3G peptide binding; higher % means a stronger effect; test concentration not given here; strong numbers were not always called active | inhibition, %, or IC50 in µM where a hit was titrated;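 active = above the screen mean plus three standard deviations and confirmed in dose response; inconclusive = results disagree or hit not tested in dose response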;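 also: Vif residues 1-94 fused to GST binding biotinylated APOBEC3G peptide 110-148; 0% = full assay without inhibitor and 100% = GST in place of GST-Vif; retest series ran down from 100 µM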
RanGTP-Imp inh: inhibitors of RanGTP-importin-beta interaction, primary screen, biochemical, FRET, CFP-Ran, YFP-importin-beta, homogeneous; cell-free CFP-Ran/YFP-importin-beta FRET ratio; inhibition, % (test concentration not listed); 300,000 tested, 1.1% active; AID 2216;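 active = most replicates above 15%; inconclusive = exactly half above 15%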;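 also: 0% = DMSO wells and 100% = Ran loaded with GDP instead of GTP; wells of about 40 µL received 100 nL stock; the first replicate is given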
UCH37 DUB inh: human UCH37 deubiquitinating enzyme inhibition; Q9Y5K5; purified proteasome/UCH37, Ub-AMC cleavage fluorescence; inhibition, % (concentration not given with the values); 330,000 tested, 0.33% active; AID 588478;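 active = mean of two replicates above 20%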;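 also: 0% = compound-free wells with enzyme and 100% = wells lacking proteasome; stock transfer was 100 nL into about 20 µL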
Target sequence (Q9Y5K5 whole entry, looked up): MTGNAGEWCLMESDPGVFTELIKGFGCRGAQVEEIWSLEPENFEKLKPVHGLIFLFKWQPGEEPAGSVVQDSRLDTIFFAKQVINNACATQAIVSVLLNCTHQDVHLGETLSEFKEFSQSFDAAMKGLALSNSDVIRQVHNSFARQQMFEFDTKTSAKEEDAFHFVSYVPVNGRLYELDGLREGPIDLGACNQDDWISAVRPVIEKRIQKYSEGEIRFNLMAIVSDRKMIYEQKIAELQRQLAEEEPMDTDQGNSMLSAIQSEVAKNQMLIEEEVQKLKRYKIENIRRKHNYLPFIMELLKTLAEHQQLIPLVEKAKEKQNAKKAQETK
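Schedule: 30 min plus 25 min, room temperature / Material: human UCH37 within purified proteasomes / Technique: AMC fluorescence intensity at 355/460 nm / Buffer or medium: pH 7.4 Tris-HCl (50 mM) with ovalbumin, ATP-MgCl2, DTT / Controls: wells without proteasome as full block, compound-free enzyme plus substrate as uninhibited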
The depositor's hits bear a star; i = inactive; u = inconclusive; x = no result given.

SMILES	HNF4A DNA FP	AF4-AF9 inh	FGF22 binding	E coli growth	Vif A3G	RanGTP-Imp inh	UCH37 DUB inh
O=[N+]([O-])c1cccc(-c2cc3ccccc3[nH]2)c1	0.5	-2.3	i	0.68	x	1.2	7.2
COc1ccc(-n2cccc2/C=C2/NC(=O)N(c3cccc(Cl)c3)C2=O)cc1	11	-0.6	i	0.69	x	7.0	-1.1
CC(=O)Nc1ccc(C)c(NC(=S)Nc2ccc(F)cc2)c1	-2.3	-5.3	i	0.66	24%	1.2	7.6
Cc1ccc(OCCNC(=O)/C=C/c2ccccc2)cc1C	0.8	x	x	0.66	-3%	-0.2	4.4
CCCNC(=O)c1ccccc1NC(=O)Nc1ccccc1C	-1.6	x	x	0.65	5%	-2.0	3.0
C[N+]1(CCOS(=O)C23CC4CC(CC(C4)C2)C3)CCOCC1 (stereo unspecified)	-4.6	x	x	0.66	-1%	-4.7	0.1
O=C(CN(C(=O)c1csnn1)c1cccc(F)c1)NCc1ccc(F)cc1	2.0	0.9	i	0.67	-4%	0.5	2.6
CC(C)(C)C1CCC(C(=O)OCC(=O)Nc2ccc3[nH]c(=O)[nH]c3c2)CC1 (stereo unspecified)	-0.2	0.1	i	0.69	1%	0.8	-1.0
O=C(Nc1nccs1)c1ccc[nH]c1=O	0.9	-0.3	i	0.67	x	-2.4	8.5
CCNc1nc(N2CCCCC2)nc(-n2nnc(C(=O)OCC)c2C)n1	-0.3	x	x	0.68	-1%	-0.9	-0.6
N#CCC(=O)NCCCOC(=O)Nc1ccc(Cl)c(Cl)c1	0.2	x	x	0.59	-3%	1.6	2.1
O=c1cc(-c2ccsc2)oc2ccc(-c3ccc4cc[nH]c4c3)cc12	2.5	4.0	i	0.7	x	x	-3.1
O=S(=O)(Nc1ccc(Br)cc1)c1cccc(NC(=S)NCCN2CCOCC2)c1	-0.5	1.8	i	0.65	x	-13	7.9
C=CCN(CC=C)C(=O)c1cc(Cl)ccc1[N+](=O)[O-]	0.1	1.8	i	0.69	x	0.4	-1.5
S=C(NCc1ccco1)N1CCOCC1	-0.8	-0.3	i	0.62	-1%	22*	0.5
O=C(Nc1ccc(S(=O)(=O)NCC2CCCO2)cc1)C1CC(=O)N(c2ccccc2)C1 (stereo unspecified)	0.8	-5.5	i	0.69	x	4.6	4.7
O=S(=O)(Nc1nc2ccccc2s1)c1cnc(Cl)c(Br)c1	-2.9	-2.0	i	0.68	u	0.5	3.8
O=C(NCCc1ccc(Cl)cc1)c1ccc(=O)[nH]c1	-3.1	-2.9	i	0.7	x	-0.6	1.2
O=C(O)CCSc1nc2ccccc2n1CCOc1ccccc1	0.8	-2.1	i	0.7	-6%	1.6	-1.9
CC1COC2C(O1)N(S(C)(=O)=O)CCN2S(C)(=O)=O (stereo unspecified)	0.0	x	x	0.69	-5%	0.1	1.3

3 compounds from above, sorted by their value in Vif A3G, descending:
| structure | HNF4A DNA FP | AF4-AF9 inh | FGF22 binding | Vif A3G | RanGTP-Imp inh | UCH37 DUB inh |
| --- | --- | --- | --- | --- | --- | --- |
| S=C(NCc1ccco1)N1CCOCC1 | -0.8 | -0.3 | i | -1% | 22* | 0.5 |
| N#CCC(=O)NCCCOC(=O)Nc1ccc(Cl)c(Cl)c1 | 0.2 | x | x | -3% | 1.6 | 2.1 |
| O=C(O)CCSc1nc2ccccc2n1CCOc1ccccc1 | 0.8 | -2.1 | i | -6% | 1.6 | -1.9 |

(continued)
SMILES	HNF4A DNA FP	AF4-AF9 inh	FGF22 binding	E coli growth	Vif A3G	RanGTP-Imp inh	UCH37 DUB inh
CCOC(=O)C1CCCN(c2c(N3CCN(c4ccccn4)CC3)c(=O)c2=O)C1 (stereo unspecified)	4.4	-18	i	0.75	12%	x	4.8
COCC(=O)Nc1ccc(F)cc1	-0.3	-12	i	0.73	x	-4.7	5.6
CCOC(=O)c1[nH]c(C)c(C(=O)OC)c1C	-2.8	-0.7	i	0.63	-2%	-1.0	1.1
Cc1ccc(S(=O)(=O)N(C)C)cc1NC(=O)COC(=O)COc1ccccc1[N+](=O)[O-]	-0.2	-1.0	x	0.61	u	-1.5	0.2
O=C(Nc1ccn(Cc2ccc(Cl)cc2)n1)c1ccccc1	0.2	2.1	i	0.66	x	-5.0	5.0
COc1ccc(CNC(=O)C[C@H]2C[C@H](C(=O)N(C(C)C)C(C)C)[C@@]3(C)c4[nH]c5ccc(Cl)cc5c4CCN3C2=O)cc1OC	-0.8	3.9	i	0.67	2%	x	1.9
C=C(C)CSC1=C(C#N)C(c2ccccc2Cl)CC(=O)N1 (stereo unspecified)	0.9	x	x	x	-5%	-2.1	x
CC1=NN(c2ccccc2)C(=O)/C1=C\c1cn(C)c2ccccc12	-43	16	x	0.7	-3%	-2.4	3.9
CCc1c(-c2n[nH]c(=S)n2Cc2ccccc2)csc1C	-0.8	x	x	0.69	4%	-1.6	-0.4
CN(CC(=O)NCCc1ccc(F)cc1)Cc1cccc(Cl)c1	1.0	-1.5	i	0.67	x	3.9	4.4
CC(=O)Nc1ccc(S(=O)(=O)N(C)c2ccc(OCCOc3cccc(C)c3)cc2)cc1	-6.3	1.5	i	0.68	11%	x	0.5
Cc1ccc(C(=O)NC(=S)Nc2ccc(S(=O)(=O)N(C)c3ccccc3)cc2)cc1	-1.8	x	x	0.73	8%	-4.2	4.5
CC(C)CCOc1ccc(/C=N/N2C(=O)CSC2=S)cc1	0.5	1.7	i	x	11%	-2.3	x
O=C(CCn1nc(-c2ccccc2)ccc1=O)N1CCN(c2ccccn2)CC1	3.5	x	x	0.68	25%	5.8	0.0
c1ccc(-c2noc(-c3cccs3)n2)nc1	2.2	x	x	0.61	x	2.9	1.3
Cc1cccc(CC2CC(=O)N(c3ccccc3)C2=O)c1 (stereo unspecified)	2.3	x	x	0.68	u	4.2	2.1
COc1ccccc1-c1nnc(SC(C)C(=O)NCC2CCCO2)n1C (stereo unspecified)	0.0	1.8	i	0.68	-3%	x	-0.9
CC(C)N1CCC(N2CCN(CC#Cc3ccccc3)CC2CCO)CC1 (stereo unspecified)	0.6	3.7	i	0.62	-3%	-2.1	-0.3
O=C(CN1CCN(c2ccccc2O)CC1)Nc1ccnn1C1CCCC1	1.4	1.7	i	0.66	x	x	-0.7
COc1ccc(-c2c(NC(=O)c3ccco3)n(-c3ccccc3)nc(C)c2=O)cc1	-3.9	4.3	i	0.66	u	0.0	2.8
COc1cccc(CC(=O)Nc2ccccc2C(=O)N2CCOCC2)c1	1.1	x	x	0.71	3%	-2.0	-1.6
Cc1ccc(C(=O)OC(C)C(=O)N(C)C2CCCCC2)cc1S(=O)(=O)N1CCCCC1 (stereo unspecified)	-1.5	2.3	i	0.72	5%	x	2.4
O=C(Nc1ccc(Cl)c(S(=O)(=O)N2CCOCC2)c1)c1ccncc1	2.9	-3.2	i	0.66	1%	x	1.2
CC(=O)Nc1ccc(C=NNc2nnc(NN=Cc3ccc(NC(C)=O)cc3)c3ccccc23)cc1	24	0.1	i	x	-2%	x	x
CCC(=O)N1CCN(c2ccccc2NC(=O)COc2cccc(C)c2C)CC1	0.4	-1.0	i	0.72	4%	-1.1	3.4
CN(C)C(=O)c1cccn(Cc2ccc(C(F)(F)F)cc2)c1=O	-0.5	-1.0	x	0.66	2%	-0.8	1.7
CCS(=O)(=O)N1CCC(C(=O)NCc2ccc(F)cc2Cl)CC1	1.8	x	x	0.69	17%	0.3	6.2
COC(=O)CCN(c1ccccc1)S(=O)(=O)c1cc(-c2cc(C)no2)ccc1OC	-5.4	2.4	i	0.65	x	3.6	0.0
CCCn1ncc2c(Nc3ccc(C)c(C)c3)ncnc21	-1.4	4.5	i	0.7	x	u	-0.8
O=c1oc([C@@H](O)c2ccccc2)cc2ccccc12	2.7	-2.2	i	x	x	x	2.0
CCc1ncc(CN2CCC(C(=O)Nc3cccc(-c4cscn4)c3)CC2)cn1	-4.5	3.8	i	0.69	x	3.4	3.7
Cc1cc(C)n2nc(C(=O)OCC(=O)Nc3cc(S(=O)(=O)N4CCOCC4)ccc3Cl)nc2n1	2.4	5.6	i	0.65	x	x	1.7
COc1ccc(CC(=O)Nc2ccncc2Cl)cc1	0.1	-0.8	i	0.74	-2%	2.0	1.9
CCOC(=O)C1=CC[C@@H](c2ccccc2)N(S(=O)(=O)c2ccc(C)cc2)[C@H]1c1ccc(C#N)cc1	-5.2	0.5	i	x	x	x	x
COc1cccc(NC(=O)c2cccs2)c1	-0.7	x	x	0.71	4%	-2.1	2.7
CCOC(=O)Cc1csc(NC(=O)CC(C)(C)CC(=O)O)n1	-0.9	-8.3	i	0.66	3%	0.7	3.9
COc1cc(C=C2CCCC(=Cc3ccc(OCC4CO4)c(OC)c3)C2=O)ccc1OCC1CO1 (stereo unspecified)	5.6	-2.0	i	x	-1%	x	x
Cc1ccc(OC(C)C(=O)Nc2ccncc2)cc1C (stereo unspecified)	1.9	4.1	i	0.64	x	6.1	2.9
Cc1cc(C)nc(/N=C(\N)Nc2ccc(S(=O)(=O)O)cc2)n1	3.0	0.1	x	x	x	5.8	x
Cc1ccccc1CC(=O)Nc1ccc2c(C)cc(=O)oc2c1	-0.4	-5.2	i	0.63	x	2.9	-87
O=C(O)CSC(NC(=O)c1cccnc1)(C(F)(F)F)C(F)(F)F	-1.6	x	x	0.69	-1%	2.3	0.5
CC(=O)Nc1ccc(CN(C)c2c(C)nc3ccc(C(=O)N(C)Cc4ccco4)cn23)cc1	1.7	-2.6	i	x	x	x	x
C/C(=N\NC(=O)CSCc1ccccc1Br)c1cccc([N+](=O)[O-])c1	-2.3	2.3	i	x	18%	-0.3	x
CCOC(=O)c1c(-c2ccc(C)s2)csc1N	-3.1	-0.3	i	0.66	x	24*	0.7
COC(=O)N/N=C/c1cc(C)n(-c2ccc(F)cc2)c1C	2.7	4.1	i	x	-1%	-1.6	x
FC(F)(F)c1ccc(-c2cccc3c2C2CC3CCN2)cc1 (stereo unspecified)	0.1	-1.2	i	x	3%	x	x
Nc1ccc2c(c1)COc1ccccc1O2	-4.4	x	x	0.67	18%	2.9	5.9
COc1ccc(Cl)cc1NS(=O)(=O)c1ccc(S(=O)(=O)N2CCCC2)cc1	0.0	x	x	0.69	3%	9.1	4.9
CC1(C(=O)NS(=O)(=O)c2ccc(F)cc2F)CCN1C(=O)C1CCCCC1 (stereo unspecified)	-1.2	-1.7	i	x	x	x	x
Cc1ccc(NC(=O)NC(=O)c2cnccc2C(F)(F)F)c(C)c1	-0.6	-10	i	0.65	-8%	-0.7	4.7
Other compounds.
SMILES	HNF4A DNA FP	AF4-AF9 inh	FGF22 binding	E coli growth	Vif A3G	RanGTP-Imp inh	UCH37 DUB inh
COc1cccc(CN(C)CC(=O)NC(=O)NCc2ccco2)c1	-7.9	x	x	0.75	17%	0.5	1.5
CNC(=S)N1CCN(c2nc3ccccc3s2)CC1	0.8	-0.9	i	0.66	5%	4.9	2.0
O=C(NC1CCCC1)C1CCC(=O)N1CCc1ccccc1 (stereo unspecified)	-1.4	x	x	0.71	27%	-4.1	2.1
O=C(CSCC(=O)Nc1nccs1)Nc1ccccc1	-0.9	x	x	0.74	-4%	-1.2	-5.6
O=C(Cc1ccc(Cl)c(Cl)c1)Nc1ccc(S(=O)(=O)Nc2ncccn2)cc1	2.7	0.5	i	0.69	14%	1.7	1.3
CCCOc1ccc(C2C(=O)N(C3CCCCC3)CC(=O)N2CCCOCC)cc1OC (stereo unspecified)	-0.6	x	x	0.64	u	x	4.4
COc1ccccc1-c1nnc2sc(COc3ccc(Cl)cc3)nn12	0.4	x	x	0.66	6%	2.4	3.0
O=C(c1nc(-c2ccccc2)n(-c2ccccc2)n1)N1CCCCCC1	-5.6	x	x	0.66	2%	-2.3	3.8

This is a subset; the hit share may differ from the screen's.
